# Screening results as filed in PubChem BioAssay.
# Mtb MenB inh = inhibitors of Mycobacterium tuberculosis MenB enzyme. MenB enzyme assay, absorbance read-out; some hits fall short of the stated cut. inhibition, %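 (about 12 µg/mL by stock and volumes)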. AID 540299. P9WNP5. hit rate 0.43% among 100,000;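 active = mean of two replicates above 30%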;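 also: 0% = no compound and 100% = wells with inactive enzyme; the first replicate is given; strong numbers were not always called active; inactives centre near -10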
# Target sequence (P9WNP5 whole entry, looked up): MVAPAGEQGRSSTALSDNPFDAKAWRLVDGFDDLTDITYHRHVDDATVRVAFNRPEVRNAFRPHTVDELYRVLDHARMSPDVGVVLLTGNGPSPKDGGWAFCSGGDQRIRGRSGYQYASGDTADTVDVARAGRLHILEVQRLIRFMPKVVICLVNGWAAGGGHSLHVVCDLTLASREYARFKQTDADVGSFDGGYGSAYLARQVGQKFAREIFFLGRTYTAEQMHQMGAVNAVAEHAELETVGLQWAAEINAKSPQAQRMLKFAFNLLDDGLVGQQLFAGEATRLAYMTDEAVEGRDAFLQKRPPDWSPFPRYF
# Polio RdRp inh = poliovirus RNA polymerase inhibition; P03300; poliovirus polymerase elongation, fluorescence polarization; hits give low values; % elongation, % (compound at 16.7 µg/mL); hit rate 0.66% among 150,000; AID 588519; in the data active = % elongation below about 90%; also: some results filed as inactive read as strong as hits
# Target sequence (P03300 1749-2209 limits assumed): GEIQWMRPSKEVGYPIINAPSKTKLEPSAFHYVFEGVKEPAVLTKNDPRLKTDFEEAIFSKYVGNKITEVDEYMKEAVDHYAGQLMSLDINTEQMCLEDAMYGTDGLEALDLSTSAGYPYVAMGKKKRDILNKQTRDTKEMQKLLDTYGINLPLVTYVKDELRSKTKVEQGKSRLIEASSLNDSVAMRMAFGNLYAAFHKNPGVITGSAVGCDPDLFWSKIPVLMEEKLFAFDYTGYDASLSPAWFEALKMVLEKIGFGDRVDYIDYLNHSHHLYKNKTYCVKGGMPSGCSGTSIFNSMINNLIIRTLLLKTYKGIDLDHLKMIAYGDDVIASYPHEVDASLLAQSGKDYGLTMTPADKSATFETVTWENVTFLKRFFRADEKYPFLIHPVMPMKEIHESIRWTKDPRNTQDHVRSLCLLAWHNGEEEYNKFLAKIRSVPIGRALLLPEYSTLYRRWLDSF
# MbtI inh = MbtI salicylate synthase inhibition. P9WFX0. AID 493033. hit rate 0.89% among 100,000. inhibition, %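 (about 17 µg/mL by stock and volumes)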. purified MbtI enzyme, fluorescence intensity read-out;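 active = above 50% in both replicates, above 80% if mildly self-fluorescent; inactive = the rest, strongly fluorescent compounds included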;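 also: 0% = mean of negative and 100% = mean of positive controls; one replicate is shown; some compounds called inactive have numbers as strong as hits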
# Polio RdRp inh intensity = recorded beside Polio RdRp inh, whose call it bears; % elongation; measured here: total intensity read-out; formula for this scale not given here;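 total fluorescence in place of polarization; lower means less elongation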
# * marks the source's active call; other numbers are inactive results; i = inactive; / = not tested or not shown; & = joins results of further samples. Rows were taken by chance, and some 1.8% of all compounds hit somewhere here.
# Sample of the layout (seven entries):
SMILES,Mtb MenB inh,Polio RdRp inh,Polio RdRp inh intensity,MbtI inh
CC(C)Cn1c(SCC(=O)NCC(F)(F)F)nc2ccccc21,17,101,101,8
COc1cc(NC(=O)[C@@H](NC(=O)c2cc(OC)cc(OC)c2)C(C)C)cc(OC)c1,-3,106,115,10
CNc1nc(-c2ccc(O)cc2O)cs1,-105,104,98,13
Cc1ccn2c(=O)cc(CNCC(c3ccco3)N3CCCCC3)nc2c1 (stereo not drawn),-20,106,116,55
O=C(CCSCc1cnn(-c2ccccc2)c1-n1cccc1)N1CCCCCC1,-23,101,100,-8
O=C(O)c1cnn2c(C(F)(F)F)cc(-c3ccc(F)cc3)nc12,-10,101,100,4
Cc1cc2ncn(/N=C/c3ccc4c(c3)OCO4)c2cc1C,/,104,100,57

# All compounds of this part, from the first entry:
SMILES,Mtb MenB inh,Polio RdRp inh,Polio RdRp inh intensity,MbtI inh
CC(C)Cn1c(SCC(=O)NCC(F)(F)F)nc2ccccc21,17,101,101,8
COc1cc(NC(=O)[C@@H](NC(=O)c2cc(OC)cc(OC)c2)C(C)C)cc(OC)c1,-3,106,115,10
CNc1nc(-c2ccc(O)cc2O)cs1,-105,104,98,13
Cc1ccn2c(=O)cc(CNCC(c3ccco3)N3CCCCC3)nc2c1 (stereo not drawn),-20,106,116,55
O=C(CCSCc1cnn(-c2ccccc2)c1-n1cccc1)N1CCCCCC1,-23,101,100,-8
O=C(O)c1cnn2c(C(F)(F)F)cc(-c3ccc(F)cc3)nc12,-10,101,100,4
Cc1cc2ncn(/N=C/c3ccc4c(c3)OCO4)c2cc1C,/,104,100,57
CC(=O)Oc1ccc(-c2cccc(C(=O)O)c2)cc1,-9,99,99,-1
O=C(CC(c1ccccc1)c1ccccc1)NCCn1ccc2ccccc21,-21,101,100,40
COC(=O)Cc1cc(=O)[nH]c(/N=C(\N)Nc2ccccc2)n1,-20,100,97,2
O=C(COc1ccc(S(=O)(=O)N2CCOCC2)cc1)NCCC1=CCCCC1,-9,99,101,-7
CN(Cc1cccs1)C(=O)Cn1cnc2ccccc2c1=O,-25,/,/,1
O=C1NC(c2ccc(Cl)cc2)=CC(c2ccc(Cl)cc2)N1 (stereo not drawn),2,110,112,/
CC1(C)CC(=O)c2cc(-c3ccc(Br)cc3)n(CC(=O)O)c2C1,-18,100,85,/
Oc1c(C(Nc2ccccn2)c2cccnc2)ccc2cccnc12 (stereo not drawn),-91,119,209,28
Cc1cc2c(n1-c1ccc(C(=O)NCCN(C)C)cc1)CCCC2,-10,103,107,-2
COc1ccc(OC)c(C(=O)CSC#N)c1,-5,103,101,-45
CCN(CC)c1ccc(C(=O)OCC(=O)NC2CCCCC2)cc1,/,103,107,-11
Nc1nc(N(Cc2ccccc2)Cc2ccccc2)nc(C(F)(F)F)n1,-31,98,97,/
CCCCCCCCCCCCCC(=O)N[C@@H](C)[C@H](O)c1ccccc1,0,101&100,106&104,-15
O=S(=O)(c1ccccc1)n1nc(-c2cccnc2)nc1NCc1cccs1,-22,100,101,-9
O=C(O)CCC(=O)Nc1ccc(COc2ccccc2)cc1,-27,99,110,-3
COC(=O)c1cc(S(=O)(=O)NCC(C)c2ccccc2)cn1C (stereo not drawn),-26,104,104,-6
COc1cc2nc(CC(C)C)n(N)c(=O)c2cc1OC,-31,104,102,7
C1CCC(Nc2nnnn2C2CCCCC2)CC1,i,105,101,-2
c1ccc(Nc2cccc3nccnc23)cc1,-63,103,103,-6
O=C(O)CSc1c2c(nc3cc(C(=O)NCCN4CCOCC4)ccc13)CCC2,0,102,102,4
Cc1cc(NC(=O)C(Cc2ccccc2)NS(=O)(=O)c2cccc3cccnc23)no1 (stereo not drawn),1,102,105,-12
Cc1ccc(NC(=O)c2cc(=O)[nH]c(=O)[nH]2)cc1,-21,103,103,14
Cc1ccc(C(CC(=O)N2CCCCC2)N2Cc3ccccc3C2=O)cc1 (stereo not drawn),4,103,103,-26
COc1ccc(N2CCN(CCCNC(=O)c3cccc(Nc4nc5ccccc5n5nnnc45)c3)CC2)cc1,-22,102,105,9
O=C(NCCC1=CCCCC1)c1ccc2c(c1)sc1nc(-c3ccccc3)cn12,-23,103,103,4
CC1CCN(C(=O)CCNC(=O)c2ccccc2)CC1,-1,104,107,-9
CC1=CC2=NC(=O)/C(=C\c3cccn3CCCOc3cc(C)cc(C)c3)C(=N)N2O1,-43,99,103,-6
O=C(CCNC(=O)c1ccc(Br)o1)NC1CCCC1,-16,101,104,-16
COc1cccc(-c2nc(S(=O)(=O)c3ccc(C)cc3)c(N(C)C)o2)c1,-9,104,104,7
COc1ccccc1NC(=O)Cc1ccc(Br)cc1,-10,103,105,/
Cn1nccc1NS(=O)(=O)c1ccc(NS(=O)(=O)c2ccc(Cl)cc2)cc1,5,104,108,-15
CCn1nnc2c(N3CCN(c4ccc(OC)cc4)CC3)ncnc21,-57,104,102,94
Cc1cc(NC(=O)COc2cc(C)c(Cl)c(C)c2)no1,6,100,100,-1

# A second format for part of the listing above:
canonical_smiles | Mtb MenB inh | Polio RdRp inh | Polio RdRp inh intensity | MbtI inh
O=C(CCNC(=O)c1ccc(Br)o1)NC1CCCC1 | -16 | 101 | 104 | -16
O=C(O)CSc1c2c(nc3cc(C(=O)NCCN4CCOCC4)ccc13)CCC2 | 0 | 102 | 102 | 4
Cc1cc(NC(=O)COc2cc(C)c(Cl)c(C)c2)no1 | 6 | 100 | 100 | -1
O=C(O)CCC(=O)Nc1ccc(COc2ccccc2)cc1 | -27 | 99 | 110 | -3

# More results follow:
SMILES,Mtb MenB inh,Polio RdRp inh,Polio RdRp inh intensity,MbtI inh
Cc1ccc(OCc2ccc(Cl)cc2)c(C(C)(C)C)c1,-12,102,104,/
Cc1cccc(NCN2C(=O)S/C(=C/c3ccc(N(C)C)cc3)C2=O)c1,-102,102,108,4
O=C(NCC1CCCO1)c1ccc(CSc2ncn[nH]2)cc1 (stereo not drawn),-17,102,105,-4
O=C(OCC(=O)N1CCCCC1)c1ccc(S(=O)(=O)N2CCCCC2)cc1,1,103,103,-6
CCOc1ccc(Nc2cc(C(=O)NCc3ccc(F)cc3)c3ccccc3n2)cc1,-39,102,104,-7
CCc1cccc2nc(SC(CC)C(=O)NN)n(-c3ccc(OC)cc3)c(=O)c12 (stereo not drawn),-17,102,99,/
COCC(C)n1c(SCC(N)=O)nc2ccccc2c1=O (stereo not drawn),-4,87,221,13
CCCOc1ccc(-c2nc(OCC)c3ccccc3n2)cc1,-14,103,102,2
COCCn1c(-c2ccccc2)cnc1N,-79,106,102,10
C/C(=N\N(C)c1ccccc1)C1=C(O)CC(C)(C)CC1=O,/,102,107,-7
CCS(=O)(=O)Nc1ccc(Br)cn1,-4,106,114,/
O=C(/C=C/N1CCOCC1)c1cccs1,-36,103,101,/
Cc1nnc(NC(=O)CN2C(=O)c3cccnc3Sc3ccccc32)s1,10,103,105,1
O=C(O)/C=C/c1ccc(Cn2ccnc2)cc1,-8,100,101,-2
COC(=O)C1=CO[C@@H](C)[C@@H]2CN3CCc4c([nH]c5ccccc45)C3C[C@H]12 (stereo partly drawn),-8,100,107,-11
O=C(c1cccc(Cl)c1)N1CCCc2ccccc21,-16,105,100,-7
COC(=O)c1cc(OC(=O)c2nn(-c3ccccc3)nc2C)n(-c2ccccc2)n1,-43,106,113,-6
CCOC(=O)N1CCN(S(=O)(=O)c2ccc(C)cc2)C1C(C)C (stereo not drawn),-28,105,100,-7
COc1ccc(Cl)cc1Nc1nc2cc(C)ccc2cc1C#N,-1,102,96,/
CN1C(=O)C(O)(CC(=O)/C=C/c2ccco2)c2ccccc21 (stereo not drawn),-2,105,105,19
COc1ccc(C(CC(=O)NC2CCCC2)NS(=O)(=O)c2ccc(C)cc2)cc1 (stereo not drawn),-14,105,106,-6
COc1cc(C(=O)NCCCc2nc3ccccc3[nH]2)cc(OC)c1OC,-35,101,102,3
O=C(CCCN1CC=C(n2c(=O)[nH]c3ccccc32)CC1)c1ccc(F)cc1,5&-3,101&97,99&99,-12&4
CN1CCN(C(=O)CCc2nc(-c3ccccn3)no2)CC1,15,101,102,-4
Cc1ccc(SCc2cc(=O)[nH]c(N3CCCCC3)n2)cc1,-30,106,108,-3
Cc1cc(C)cc(-n2c(SCC(=O)NCC3CCCO3)nc3c(c2=O)SC(C)C3)c1 (stereo not drawn),-15,101,103,0
O=C(COC(=O)/C=C/c1ccccc1)Nc1c(F)cccc1F,/,104,99,0
COc1cccc(-c2nc(CS(=O)(=O)CC(=O)Nc3ccccc3C)c(C)o2)c1,-7,103,108,-7
N=c1c[n+](-c2ccc(Cl)cc2)[n-]o1,-32,100,95,23
O=C(c1ccc(Cl)cc1)N1CCCC(c2nc(-c3ccc(Cl)cc3)no2)C1 (stereo not drawn),7,103,103,-4
COc1cccc(NC(=S)Nc2ccc(S(N)(=O)=O)cc2)c1,-21,99,101,23
CCOC(=O)c1cnc2ccccc2c1NCC(C)O (stereo not drawn),-41,94,118,-6
COc1ccc(-c2noc(-c3ccc(Cl)c(Cl)c3)n2)cc1,-14,103,106,-8
O=c1[nH]c2sc3c(c2c2ncnn12)CCCC3,-8,102,103,48
COc1cccc(-c2nc(=S)c3c(o2)CCCC3)c1,-138,99,105,13
Cc1ccc2nc(-c3ccc(N=Cc4c[nH]c5ccccc45)cc3)sc2c1,-22,107,112,/
CN(C(=O)CSc1ccc(C(F)(F)F)cn1)c1c2c(nn1C)CCCC2,-7,110,116,-8
CCC1=C(C(=O)OC)C(/C=C/c2ccccc2)n2ncnc2N1 (stereo not drawn),-21,/,/,-3
O=c1ccnc2n1COCS2,-4,100,100,2
O=C(/C=C\c1ccccc1)Nc1ccc(-c2cn3cccnc3n2)cc1,7,105,100,2
O=C1c2ccccc2C(=O)N1/N=C/c1ccc2c(c1)OCCO2,-34,102,100,-5
O=C1CCC(=O)N1c1ccc(CSc2nnnn2C2CCCCC2)cc1,0,103,104,-12
O=C(C1CCC(CNS(=O)(=O)c2ccccc2)CC1)N1CCCC1 (stereo not drawn),-15,99,99,5
CN1C(=O)CN(C2CCCCC2)C1=O,-34,104,104,-5
CCCn1c(N)c(C(=O)CN2c3ccccc3CC2C)c(=O)n(C)c1=O (stereo not drawn),2,102,109,0
CC1CCN(C=C(S(=O)(=O)c2ccccc2)S(=O)(=O)c2ccccc2)CC1,-8,100,102,0
COC(=O)c1cnc(NCCCN2CCOCC2)c2ccccc12,-16,100,99,126
CC(=O)Nc1ccc(-c2cc(C(=O)O)nc3n[nH]c(-c4ccccc4)c23)cc1,-18,102,104,-7
COCCNC(=O)C12CC3CC(C1)CC(C(=O)NCCOC)(C3)C2,8,105,105,-4
OC(CNCc1ccccc1)Cn1c2ccc(Cl)cc2c2cc(Cl)ccc21 (stereo not drawn),1,102,103,17
Cc1cc(C(=O)COC(=O)/C=C/c2ccco2)c(C)n1-c1ccc(F)cc1,-33,98,102,9
COc1ccc(OC)c(C2=NOC(C(=O)N(C)C3CCCCC3)C2)c1 (stereo not drawn),3,100,102,-18
CCCN(CCC)CC(O)CN1C(=O)N(CN2C(=O)N(CC(O)CN(CCC)CCC)C(=O)C2(C)C)C(C)(C)C1=O (stereo not drawn),5,102,102,-2
CCC(=O)N1CCCc2cc(S(=O)(=O)CCC(=O)Nc3ccc(CC)cc3)ccc21,-18,103,108,-5
CN(C)/C=N/n1cnnc1,-1,97,96,-24
O=C(COCC(=O)c1ccccc1)Sc1nc2ccccc2o1,-4,104,106,/
Cc1cc(O)c(C(=O)/C=C/N(C)C)c(=O)o1,-66,101,104,6
O=C(O)Cc1cc(=O)n(C2CCS(=O)(=O)C2)[nH]1 (stereo not drawn),-39,102,87,-3
O=C1c2ccccc2C2(O)NC(=S)NC12O (stereo not drawn),4,100,103,-3
O=C(NC12CCC(O)C(SC1)/C2=N/O)c1ccccc1 (stereo not drawn),4,103,101,-13
# Continuation:
SMILES,Mtb MenB inh,Polio RdRp inh,Polio RdRp inh intensity,MbtI inh
O=P1(c2ccccc2)C=CCC1 (stereo not drawn),7,102,100,6
CN(Cc1ccccc1)S(=O)(=O)c1ccc(C(=O)Nc2ccc(-c3nc4ccccc4[nH]3)cc2)cc1,-57,103,98,41
COc1cc(OC)c(OC)cc1CNCc1cccnc1,1,99,99,-6
FC(F)(F)c1ccccc1/C=N\N1CCN(c2ccccc2)CC1,-7,106,102,-2
CCc1cc(CC)c(CO)c(CC)c1CO,8,98,102,-7
CCN(CC)C(=O)Nc1cccc(Cl)c1,33*,101,103,0
COc1ccc(-c2nc(CS(=O)(=O)c3ccc(F)cc3)no2)cc1OC,-15,100,104,-17
COc1ccccc1NC(=O)Cc1noc(COC(=O)c2ccc(SC)cc2OC)n1,-38,97,95,44
COc1cc2c(cc1OC)C(CC(=O)O)c1cc(OC)c(OC)cc1C(=O)C2 (stereo not drawn),-22,96,101,16
CCOc1ccc(CCNC(=O)c2cc3oc4ccccc4c3n2CC)cc1OCC,-13,102,103,60
CCN(C(=O)COc1ccccc1C#N)C12CC3CC(CC(C3)C1)C2,-9,100,104,-6
CC(C)(C)OC(=O)N1CCc2c(sc(N)c2C#N)C1,9,101,90,16
CN1CCN(Cn2c(=S)oc3ccccc32)CC1,-20,103,105,19
CCc1ccccc1Nc1nc2ccccc2[nH]1,-21,100,101,-51
CNc1ccc2oc(C[C@@H]3OC4(CC[C@@H]3C)O[C@H](C(C)C(=O)c3ccc[nH]3)[C@H](C)C[C@H]4C)nc2c1C(=O)O (stereo partly drawn),0,104&101,103&103,-48
CC(C)S(=O)(=O)c1csc(C(=O)O)c1,-3,104,107,-6
